H5N1 CPE: antiviral screen in MDCK cells, H5N1 avian flu | inhibition, % at 50 µM | cytopathic effect, luminescence, 72 h; hits give high values; no value below 0 was filed and about half of the inactive calls have no number; reference of the scale not given here | AID 740 | 96,000 tested, 0.07% active; in the data active = inhibition above about 25%
* hit, by the source's call; i = inactive.

smiles | H5N1 CPE
O=C1C2=C(NC(=S)NC2c2ccc(Cl)cc2)NC(c2ccc(Cl)cc2)N1c1ccc(Cl)cc1 (stereo unspecified) | 2.4
CCN(CC)S(=O)(=O)c1cc(C(=O)OC)ccc1Cl | 0.7
COc1cccc(NC(=O)CCC(=O)NCc2ccco2)c1 | i
CCCn1c(=O)c(-c2ccccc2)c(O)c2ccccc21 | 0.5
CCCCCSc1nnc(C)c(=O)[nH]1 | 1.9
Cc1noc(C)c1S(=O)(=O)N1CCC(C(=O)N2CCC(C)CC2)CC1 | i
Cc1c(OCC(=O)OC(C)C)ccc2c3c(c(=O)oc12)CCC3 | i
CCOC(=O)c1ccccc1NC(=O)c1ccc(N(C)S(C)(=O)=O)cc1 | 0.7
COC(=O)c1cc(NC(=O)Cc2ccc(OC)c(OC)c2)cc(C(=O)OC)c1 | i
CCN(CC)C(=O)N1CCN(C(=O)c2ccc(C)cn2)CC1 | i
CC1Oc2ccccc2N(CC(=O)Nc2ccc3c(c2)OCCO3)C1=O (stereo unspecified) | 0.5
CCOc1ccc(Br)cc1C1C(C(=O)OC)=C(N)Oc2cc(N(C)C)ccc21 (stereo unspecified) | 1.7
COc1ccc(OC)c(NC(=O)c2ccc(S(=O)(=O)N3CCN(C)CC3)cc2)c1 | 1.4
Cc1sc2ncn(CC(=O)NCCN3CCOCC3)c(=O)c2c1S(=O)(=O)N1CCC(C)CC1 | 2.3
CCOCC(=O)Nc1ccc(-c2cn3cccnc3n2)cc1 | i
O=[N+]([O-])c1ccccc1/C=N/n1c(COc2ccccc2)n[nH]c1=S | i
CC(=O)Nc1ccc(C(=O)OC2CCOC2=O)cc1 (stereo unspecified) | 0.4
COc1ccc(CN2C(=O)CN=C2Nc2cc(C)ccc2C)cc1 | i
CCCCOC(=O)Cn1c(=O)c2c(nc3n2CCCCN3c2ccc(C)cc2)n(C)c1=O | i
COc1ccc(N(CC(=O)NCc2cccs2)S(=O)(=O)c2cccnc2)cc1 | 0.3
COc1ccccc1C1NC(=O)NC(C)=C1C(=O)OC1CCCCC1 (stereo unspecified) | i
CS(=O)(=O)N(CCc1ccccc1)CC(N)=O | i
CCOC(=O)c1c(CN2CCCCC2C)oc2ccc(OC)cc12 (stereo unspecified) | 0.0
C=CCn1c(=O)c2c3c(sc2n2c(Nc4ccc(OC)cc4)nnc12)CCCC3 | 4.6
Cc1ccnc(N2C(=O)OC(C)(C)C2(C)O)c1 (stereo unspecified) | 0.3
Cc1ccc(C(=O)NNC(=S)NC(=O)c2ccc(Cl)cc2)cc1 | 1.6
COc1ccc(-c2cc(C(=O)N3CCN(c4ccccc4)CC3)no2)cc1OC | 0.0
CCN1C(=O)c2n[nH]c(C(=O)OC)c2C1=O | i
CCCc1ccc(OCc2nc(-c3ccc(NC(=O)c4ccco4)cc3)no2)cc1 | i
O=C(CCCSc1nnc(SCCCC(=O)c2ccc(F)cc2)s1)c1ccc(F)cc1 | i
CCCCNc1nc2ccccc2nc1NS(=O)(=O)c1cccs1 | 1.0
Cc1ccc(N/N=C/c2ccc(N3CCOCC3)cc2)cc1C | 1.6
CC1CCc2c(C(=O)Nc3nccs3)csc2C1 (stereo unspecified) | i
NC(=O)Cn1c(=O)n(CCCC(=O)NC2CCN(Cc3ccccc3)CC2)c(=O)c2ccccc21 | 1.9
COc1ccc(C=O)cc1COc1ccc(Cl)cc1[N+](=O)[O-] | 0.9
CCN(CC)CCCNc1nc2ccccc2[nH]1 | i
O=C(CSc1nnnn1-c1ccc2c(c1)OCCO2)c1cccc2c1OCCO2 | 0.4
COC(=O)CSc1nnc(CNC(=O)c2ccco2)n1-c1ccc(F)cc1 | 0.1
CC(=O)c1c(C)[nH]c(C(=O)OCc2nnc(-c3ccccc3)o2)c1C | 0.2
CCOC(=O)c1ccc(NC(=O)c2nccnc2C(=O)O)cc1 | 0.1
O=C1CCC(=O)N1CNc1ccc(Oc2ccccc2)cc1 | i
CCOC(=O)Nc1ccc(Oc2ccccc2)cc1 | i
COCCOC(=O)c1[nH]c2c(c1C)C(=O)CC(c1ccccc1)C2 (stereo unspecified) | 0.3
O=C(CC12CC3CC(CC(C3)C1)C2)Nc1cccc2ncccc12 | 0.1
CCOC(=O)CSc1nnc(Cc2ccccc2)n1-c1cccc(Cl)c1 | 0.2
O=S(=O)(Nc1ccc2c(c1)nc1n2CCOC1)c1ccc(Cl)cc1 | 0.6
COC(=O)C1=C(C)N(c2cccc3ccccc23)C(=O)C1 | i
COc1ccc(NC(=O)C(C)NS(=O)(=O)c2ccccc2)cc1Cl (stereo unspecified) | i
CC1CCc2sc3ncnc(N4CCOCC4)c3c2C1 (stereo unspecified) | 0.8
C#CCN(C#N)c1nc(NCC)nc(NC(C)C)n1 | 2.3
Brc1ccccc1-c1nnc(CSc2nncn2-c2ccccc2)o1 | 1.3
CC(C)c1nnc(NC(=O)Cn2nc(-c3ccc4c(c3)OCCO4)ccc2=O)s1 | i
O=C(O)CCN1CCc2ccccc21 | 0.8
CC(C)OC(=O)CSc1nnc(-c2ccccc2)n1N | 0.4
O=C(c1ccco1)N1CCN(C(=O)c2cc3c(s2)-c2ccccc2OC3)CC1 | 0.2
Cc1cccc(N2CCN(C(=O)Cn3c(=O)[nH]c4ccsc4c3=O)CC2C)c1 (stereo unspecified) | i
COc1ccc(S(=O)(=O)Nc2cc(C)ccn2)cc1 | i
Cc1ccc(O)c(C(=O)c2cc(C#N)c(=O)n(CC3CCCO3)c2)c1 (stereo unspecified) | 2.1
S=c1[nH]nc(-c2ccccc2)n1CC1CCCO1 (stereo unspecified) | 0.5
Cc1ccc(S(=O)(=O)c2nc(S(C)(=O)=O)sc2N(C)C)cc1 | 1.4

A draw from above in order of molecular weight, lowest first.
smiles | H5N1 CPE
O=C(O)CCN1CCc2ccccc21 | 0.8
CCOC(=O)Nc1ccc(Oc2ccccc2)cc1 | i
S=c1[nH]nc(-c2ccccc2)n1CC1CCCO1 (stereo unspecified) | 0.5
COc1ccc(S(=O)(=O)Nc2cc(C)ccn2)cc1 | i
O=C1CCC(=O)N1CNc1ccc(Oc2ccccc2)cc1 | i
Cc1ccc(O)c(C(=O)c2cc(C#N)c(=O)n(CC3CCCO3)c2)c1 (stereo unspecified) | 2.1
O=C(c1ccco1)N1CCN(C(=O)c2cc3c(s2)-c2ccccc2OC3)CC1 | 0.2

Additional entries:
Molecule	H5N1 CPE
O=C(COC(=O)c1ccccc1NC(=O)c1ccco1)NC1CCCCC1	0.5
CN(C)c1nc(SCCOC(=O)c2ccccc2)nc(N(C)C)n1	i
CC(/C=N/n1c(C2CCCCC2)n[nH]c1=S)=C\c1ccccc1	i
Cc1noc(C)c1S(=O)(=O)N1CCC(C(=O)NC2CCCc3ccccc32)CC1 (stereo unspecified)	i
CC(C)(C)C(=O)Nc1nc(=S)ss1	0.6
N#Cc1c(-c2ccccc2)nc(SCc2nc(N)nc(N3CCCCC3)n2)[nH]c1=O	0.5
CCOc1cc(-c2cc(-c3ccc(OC)cc3)nc(N)c2C#N)ccc1O	1.2
CCCS(=O)(=O)N1CCN(C(=O)c2cccnc2)CC1	0.3
CC1=C(C(=O)OC(C)C)C(c2ccc(N(C)C)cc2)C2=C(CC(C)(C)CC2=O)N1 (stereo unspecified)	1.6
Brc1ccccc1OCCCN1CCOCC1	i
Cc1ccc(NC(=O)CCC(=O)NNC(=O)COc2cccc3ccccc23)c(C)c1	0.3
CNCc1ccc(OCc2ccccc2)c(OC)c1	0.6
N#Cc1nc(COc2ccccc2)oc1N1CCCC1	1.5
COCCn1cc(C(=O)c2ccccc2OCC(=O)Nc2cc(C)on2)cc(C#N)c1=O	3.0
O=c1c(-c2nc3ccccc3s2)cccn1Cc1ccccc1	i
COc1ccc(-n2nnc3c(SCC(=O)c4ccccc4)ncnc32)cc1	i
OCC1OC(n2nc3ccccc3n2)C(O)C(O)C1O (stereo unspecified)	1.1
CCc1cc2ccc(C)cc2nc1SCC(=O)c1ccc(NC(C)=O)cc1	3.1
COc1ccc(/C=N\NC(=O)C2=NNC(=O)C2C)cc1 (stereo unspecified)	0.3
CCCC(=O)N1CCN(c2ccc(NC(=O)c3ccc(OCC)c([N+](=O)[O-])c3)cc2)CC1	0.4
Cc1cccc2c1nc(-c1ccccc1)n1cnnc21	1.1
O=C(Nc1ccc(-c2nc3ccccc3o2)cc1)c1ccc(N2C(=O)C3C4C=CC(C4)C3C2=O)cc1 (stereo unspecified)	0.3
Cc1cc(-n2c(C)cc(C(=O)COc3ccc4ccc(=O)oc4c3)c2C)no1	i
O=c1cnn(-c2ccc(Cl)cc2Cl)c(-c2ccccc2)c1	i
CCC(=O)Nn1cnc2c(c1=O)C1(CCCCC1)Cc1ccccc1-2	i
CCOC(=O)C1=C(C)NC2=C(C(=O)C(C(=O)OCC)C(c3ccccc3OC)C2)C1c1ccccn1 (stereo unspecified)	i
O=c1nc(N2CCCC2)nc(Nc2ccccc2)[nH]1	0.1
Cc1ccc(CN2C(=O)C3CCCN3c3ccc(C#N)cc32)cc1 (stereo unspecified)	i
Cn1cccc1Cc1nnc(SCC(=O)N2CCc3ccccc32)n1CCc1ccccc1	i
CCn1c(SCC(=O)C(C)(C)C)nnc1-c1ccccn1	i

Of the compounds above, 7 contain a cyano group.
Molecule	H5N1 CPE
C#CCN(C#N)c1nc(NCC)nc(NC(C)C)n1	2.3
Cc1ccc(O)c(C(=O)c2cc(C#N)c(=O)n(CC3CCCO3)c2)c1 (stereo unspecified)	2.1
N#Cc1c(-c2ccccc2)nc(SCc2nc(N)nc(N3CCCCC3)n2)[nH]c1=O	0.5
CCOc1cc(-c2cc(-c3ccc(OC)cc3)nc(N)c2C#N)ccc1O	1.2
N#Cc1nc(COc2ccccc2)oc1N1CCCC1	1.5
COCCn1cc(C(=O)c2ccccc2OCC(=O)Nc2cc(C)on2)cc(C#N)c1=O	3.0
Cc1ccc(CN2C(=O)C3CCCN3c3ccc(C#N)cc32)cc1 (stereo unspecified)	i

Next records follow:
Molecule	H5N1 CPE
Cn1c(=O)oc2cc(S(=O)(=O)N3CCCC(C(=O)N4CC=C(c5ccccc5)CC4)C3)ccc21 (stereo unspecified)	3.0
COc1ccc(-c2noc(-c3ccccc3C(=O)Nc3cccnc3)n2)cc1OC	i
COc1ccc(C)cc1NC(=O)c1cc2ccccc2cc1OCC(=O)NCc1ccco1	0.1
COCC(=O)N/N=C(\C)CC(=O)Nc1ccccc1C(N)=O	i
Cc1cc(C(=O)Nc2nnc(-c3ccccc3)s2)no1	i
N#CC1=C(N)Oc2n[nH]c(-c3ccccn3)c2C1c1c(F)cccc1Cl (stereo unspecified)	i
CCCC(=O)Nc1cccc(-c2nc3ccccc3o2)c1	0.2
Cc1cccc(NC(=O)C2CC(O)CN2C(=O)OCc2ccccc2)c1 (stereo unspecified)	0.1
CCCSc1nc2c(c(=O)n(C)c(=O)n2C)n1Cc1ccc(C)cc1	1.9
CC(=O)C1=C(O)C(=O)N(c2cc(C(C)(C)C)on2)C1c1ccc(C(C)C)cc1 (stereo unspecified)	0.1
C/C(N)=C(/C#N)C(=O)CN1CCCCC1	i
Cc1ccc(CS(=O)(=O)CCC(=O)NC2CC2)cc1	i
O=C(CCCOc1ccccc1)N1CCN(C(=O)c2ccco2)CC1	i
O=C1Nc2ccccc2C(O)(C(=O)NCc2ccc3c(c2)OCO3)N1c1ccc(Cl)c(Cl)c1 (stereo unspecified)	i
O=C(Cn1nc(-c2cccc([N+](=O)[O-])c2)c2ccccc2c1=O)Nc1cccnc1	0.3
COc1ccc(S(=O)(=O)N2CCC(O)(c3ccc(Cl)cc3)CC2)cc1	0.8
O=C1Nc2ccccc2C12OCCO2	i
CCc1cc(C(=O)OC)c(NC(=O)CCCC(=O)O)s1	i
CCCCn1c(-c2ccc(Cl)cc2)nc2c(=O)n(C)c(=O)[nH]c21	i
CC1(C)CC(=O)C(C(C2=C(O)CC(C)(C)CC2=O)c2cccs2)C(=O)C1 (stereo unspecified)	0.7
CC(=C/c1ccccc1)/C=C1/SC(N2CCOCC2)=NC1=O	0.9
COc1ccc(C(=O)CSc2nncn2C)cc1	0.5
Cc1ccc(C2C3=C(CCCC3=O)Nc3[nH]c(=S)[nH]c(=O)c32)cc1 (stereo unspecified)	0.4
O=C(Nc1cnccn1)c1cccnc1	1.0
CCOC(=O)COc1ccc2c(c1)c(C(=O)OCC)c(C)n2CC	1.4
CCNC(=O)C(=O)NCCc1ccc(Cl)cc1	i
CSC1=NCCN1C(=O)c1cccc(C(F)(F)F)c1	0.9
COC(=O)Nc1nnc(Cc2ccc(Cl)cc2)s1	i
COc1cccc(CNS(=O)(=O)c2cn(C)cn2)c1	0.5
O=C(COC(=O)c1ccc(S(=O)(=O)NCc2ccco2)cc1)NC1CCCCC1	i
CCOc1cc(N2CCOCC2)c(OCC)cc1NC(=O)Cc1cccc2ccccc12	i
CCOC(=O)C(C)Sc1nnc(-c2ccccc2O)n1Cc1ccccc1 (stereo unspecified)	i
CCc1c(C)c2cc(Cl)c(O)c(CN3CCCCC3)c2oc1=O	0.3
O=c1cc(CN2CCN(CCO)CC2)c2cc3c(cc2o1)CCC3	3.7
Clc1ccc(OCCn2ccnc2)c(Cl)c1	i
COC(=O)NC(Nc1sc2c(c1C(N)=O)CCCC2)(C(=O)OC)C(F)(F)F (stereo unspecified)	i
Cc1cnc(C(=O)Nc2ccc(F)cc2)cn1	0.1
COC(=O)C(Cc1ccc(OC(=O)c2ccc(C)cc2)cc1)N1Cc2ccccc2C1=O (stereo unspecified)	0.2
COC(=O)c1sc(NC(=O)CC(C)C)c(C(=O)OC)c1C	0.4
CCCCOc1ccccc1NC(=O)C=C(C)C	i
COc1cccc(N(CC(=O)Nc2cccc(C(C)=O)c2)S(C)(=O)=O)c1	i
CNC(=O)c1c(N)sc2c1CCCCC2	0.7
Cc1ccccc1OCC(O)Cn1c(NCc2ccccc2)nc2c1c(=O)[nH]c(=O)n2C (stereo unspecified)	1.8
CCC(=NCc1ccc(F)cc1)c1c(O)n(C)c(=O)n(C)c1=O	0.7
O=C(CCC(=O)c1ccc[nH]1)c1ccc(Cl)cc1	i
CCCCCOc1ccc(CSC(=N)N)cc1[N+](=O)[O-]	i

Only part of the results is shown; rates above refer to the full screens.
